Sa RN4220 lethal = kills Staphylococcus aureus RN4220; inhibition, % (no concentration beside the values); 330,000 compounds, 0.33% hits; S. aureus RN4220 growth, OD600, 16 h;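 active = z-score of -3 or lower and OD600 up to 0.18 on both plates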;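 note: plate controls were untreated cells for no effect and reference antibiotic for full effect; stock transfer was 100 nL into about 80 µL; one replicate is shown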
BJeLR lethal = kills HRASV12-expressing BJeLR cells | BJeLR (HRASV12) viability, CellTiter-Glo ATP luminescence, 48 h; reference of the scale not given here | inhibition, % (test concentration not listed) | 300,000 compounds, 0.17% hits | AID 1554;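 active = replicate mean above 50%; inconclusive = above 50% but judged a plate artefact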;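 note: 50 nL library stock added to about 25 µL; numbers are from one replicate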
Sa ugtP lethal = growth inhibition of S. aureus ugtP deletion strain. 330,000 compounds, 0.54% hits. growth inhibition, % (test concentration not listed). S. aureus RN4220 ugtP deletion, OD600 growth, 16 h; some inactives read as strong as hits;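 active = z-score under -3 and OD600 up to 0.15 on both plates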;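 note: plate controls were untreated wells for no effect and antibiotic for full effect; wells of about 80 µL received 100 nL stock; the first replicate is given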
PrP 5UTR inh = inhibition of PrP 5' UTR reporter expression; AID 488862; cell-based PrP 5' UTR mRNA reporter, plate reader; inhibition, % (test concentration not listed); 340,000 compounds, 0.35% hits;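 active = every replicate at 50% or more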;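 note: 0 = median of the neutral control wells; tested in H4 reporter cells; numbers are from one replicate; inactives centre near -14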
Mtb hypoxia rep = reduces hypoxia-regulated biosensor signal in M. tuberculosis; M. tuberculosis hypoxia-regulated fluorescent reporter, fluorescence; fluorescence inhibition, % (concentration not given with the values); 300,000 compounds, 0.1% hits;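 active = 35 to 45% if threefold the growth effect, above 45% if 1.5-fold the growth effect; inactive = the rest, general growth blockers included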;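 note: wells of about 50 µL received 100 nL stock; 0% = vehicle wells and 100% = reference inhibitor wells; whole bacteria with a GFP reporter of the hypoxia response; strong numbers were not always called active; many hits fall short of the cut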
Autofluor counter = counter-screen for toxin protease inhibitors: compound fluorescence. compound autofluorescence counterscreen, microsphere flow cytometry; active compounds read high. fluorescence intensity (no concentration beside the values). 360,000 compounds, 3.1% hits. AID 624483;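 active = at least 3 SD above the mean of all compounds, about 16000 in these data; inconclusive = too few beads counted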;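 note: 100 nL of 1 mM stock went into each well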
Mtb hypoxia rep growth = also measured in Mtb hypoxia rep; calls as there; growth inhibition, %; measured here: M. tuberculosis growth (absorbance);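 0% = vehicle and 100% = reference antibiotic; read after six days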
Starred values were filed as active, the others as inactive; ? = inconclusive; . = not tested or not shown.

SMILES	Sa RN4220 lethal	BJeLR lethal	Sa ugtP lethal	PrP 5UTR inh	Mtb hypoxia rep	Mtb hypoxia rep growth	Autofluor counter
CNC(=S)NN=Cc1ccccc1Cl	2.1	.	-3	.	11	4	.
O=C(O)CCn1c(C(=O)O)cc2sccc21	1.2	2	1	-11	.	.	3535
Cc1ccccc1Cn1c(C(=O)OC(C)C)cc2c1ccn2C	4.8	3	67	-8	14	11	3916
Cc1ccc(NC(=O)C2C3CC4OC(=O)C2C4C3)cc1Cl (stereo unspecified)	-0.7	.	-5	-3	.	.	2876
Cc1cc(C)n(-c2ccc(S(N)(=O)=O)cc2[N+](=O)[O-])n1	7.5	0	8	-13	6	4	4288
ON/C=N/C(=S)Nc1ncc(C(F)(F)F)cc1Cl	-1.3	9	3	-13	-3	-10	4578
Cc1cc(C)c2c(c1)C(=NN=c1sc3ccccc3n1C)C(=O)N2	4.7	.	6	.	16	-7	.
COc1ccc2[nH]cc(CCN3C(=O)c4ccc(C(=O)O)cc4C3=O)c2c1	0.0	6	10	-19	4	5	3803
CC1(C)CC(=O)C=C(NCC2CCCO2)C1 (stereo unspecified)	5.3	2	8	-41	5	4	9666
C/C(CC(=O)Nc1ccc2c(c1)OCCO2)=N\NC(=O)COc1cccc(C)c1	.	-9	.	-15	.	.	6108
COc1cccc(/C=N/n2cnc3ccccc32)c1OC	.	3	.	-62	.	.	16900*
O=S(=O)(Nc1ccc2cn[nH]c2c1)c1ccc(Cl)cc1	-0.9	10	-13	-14	1	6	5301
CCn1c(-c2ccccc2)c[nH]c1=S	4.3	-9	-2	-14	10	9	2540
Cc1ccc(Cn2nnc3c(=O)[nH]c(C4CCN(S(=O)(=O)c5ccccc5)CC4)nc32)cc1	-2.1	-9	2	-21	5	14	11070
Cc1nc2c(C(=O)N3CCOCC3)cnn2c(C)c1Cc1ccc(Cl)cc1	6.2	3	9	-13	11	9	7956
COC(=O)c1c(NC(=O)c2cccnc2)sc(C)c1C	8.9	-3	10	-2	.	.	4650
Cc1csc2nc(=O)c3ccccc3n12	.	3	.	-42	.	.	10868
CCN(CC(=O)Nc1ccc(NC(C)=O)cc1)C(=O)CCCc1c[nH]c2ccccc12	0.3	.	2	-2	1	-6	4828
CCC1CCCCN1C(=S)NC(=O)c1cc(Br)ccc1Cl (stereo unspecified)	4.3	.	0	-11	4	5	4043
CC(C)Oc1ccc(CNC(=S)NN=Cc2ccc([N+](=O)[O-])cc2)cc1	1.9	.	17	.	7	4	.
Cc1cc(C)n(-c2cccc(CN(C)Cc3nc(-c4cnccn4)no3)c2)n1	4.5	-3	0	0	-5	8	4538
C=CCn1c(N2CCCC2)nc2c1c(=O)[nH]c(=O)n2C	-0.4	2	5	-12	17	10	12795
CC1CC(C)CN(C(=O)CCn2c(=O)oc3ccccc32)C1 (stereo unspecified)	-0.6	3	1	-10	6	-1	7024
O=C(C1CCN(S(=O)(=O)c2ccc(-n3cnnn3)cc2)CC1)N1CCN(c2ccccc2)CC1	1.0	-7	3	2	-1	9	4308
COc1ccc(C(CC(=O)Nc2cc(OC)cc(OC)c2)n2cccc2)cc1 (stereo unspecified)	-2.9	11	4	-17	-1	-4	2109
O=C(c1cc(-c2ccccc2)nc2ccccc12)N1CCCC1	2.6	-3	4	-14	5	2	5680
COc1ccc(C(=O)NNC(=S)NC(=O)c2cc(-c3ccccc3)nc3ccccc23)cc1	84	3	22	2	-4	13	3038
CCC(=O)N(CCc1ccccc1)Cc1cc2ccc(OC)cc2[nH]c1=O	3.7	-1	-6	-25	-1	3	3698
Cc1cccc(N/C(N)=N/c2nc(C(F)(F)F)cc(=O)[nH]2)c1C	4.0	-9	11	-27	12	2	7004
COc1ccccc1C(CNC(=O)c1cccc(S(=O)(=O)Nc2ccc(F)cc2)c1)N1CCCC1 (stereo unspecified)	-1.0	.	-2	-24	10	2	25818*
COc1ccc(CC(O)COS(N)(=O)=O)cc1 (stereo unspecified)	2.1	-3	1	-1	3	4	3202
COc1ccc(Cc2nc3ccc(C(=O)N(C)CCO)cc3o2)cc1	1.5	-5	3	-27	6	17	3453
CN(CC(=O)Nc1ccc(Cl)c(C(F)(F)F)c1)C(=O)c1cn2ccccc2n1	8.3	-10	4	-14	5	4	5636
COc1ccc(N2C(=O)C3CCCN3C2c2cccs2)cc1 (stereo unspecified)	2.9	11	10	-16	4	1	5870
CCOC(=O)CN(C(=O)CSc1nnc(COc2ccc(OC)cc2)n1C)c1ccccc1	-1.5	-3	2	3	1	2	9823
CN(CC(=O)Nc1ccccc1Cl)C(=O)CCNC(=O)Nc1ccccc1	0.7	.	2	-15	2	3	3723
Cc1nnc2c3ccccc3c(Cl)nn12	5.4	1	5	-21	16	3	3377
CCN1CCCC1Cn1cnc2c([nH]c3cc(OC)ccc32)c1=O (stereo unspecified)	-15	2	1	-17	9	5	2840
O=C(O)CNS(=O)(=O)c1ccc2c3c(cccc13)C(=O)N2	-2.8	7	2	-48	-4	-30	.
CC1CN=C(c2cccn2Cc2ccc(F)cc2Cl)O1 (stereo unspecified)	-0.2	4	8	-7	.	.	4802
Cc1cccnc1NC(=O)c1ccc2nc(N)sc2c1	11	-12	5	-6	3	0	2880
COc1ccc(Cl)cc1S(=O)(=O)N1CCCc2ccccc21	2.2	-5	14	-15	10	1	5358
Cc1cc(NC(=O)Nc2cc(Cl)ccc2C)no1	0.3	1	8	-21	12	6	3540
Cn1nc(C(F)(F)F)c2cc(NC(=O)OCc3ccc(C(C)(C)C)cc3)sc21	.	2	.	-2	.	.	2508
CCOC(=O)N1CCN(C(=O)c2ccccc2SCC(=O)NCC2CCCCC2)CC1	-0.3	-4	8	-20	2	-4	6550
CCOC(=O)C(C)Oc1ccsc1C(=O)OC (stereo unspecified)	5.1	2	7	.	0	3	.
O=C(CNS(=O)(=O)c1ccc(C(=O)N2CCCCC2)cc1)N1CCCCC1	0.7	8	4	-19	.	.	4730
COc1cc([N+](=O)[O-])cc(C=NN(CCC#N)C(C)=O)c1O	2.0	.	-2	.	-10	-2	.
Cc1cccn2c(=O)c3cc(C#N)c(=NC(=O)c4cccs4)n(CCCOC(C)C)c3nc12	-1.9	-3	-5	-14	-5	-7	4310
CCCCCN1C2=NCCN2c2ccccc21	-3.4	-1	-2	-9	4	10	4706

Nothing new here: entries from further up.
SMILES	Sa RN4220 lethal	BJeLR lethal	Sa ugtP lethal	PrP 5UTR inh	Mtb hypoxia rep	Mtb hypoxia rep growth	Autofluor counter
Cc1cccn2c(=O)c3cc(C#N)c(=NC(=O)c4cccs4)n(CCCOC(C)C)c3nc12	-1.9	-3	-5	-14	-5	-7	4310
CCCCCN1C2=NCCN2c2ccccc21	-3.4	-1	-2	-9	4	10	4706

Other records
SMILES	Sa RN4220 lethal	BJeLR lethal	Sa ugtP lethal	PrP 5UTR inh	Mtb hypoxia rep	Mtb hypoxia rep growth	Autofluor counter
CCOC(=O)C1CN(S(=O)(=O)c2cccs2)c2ccc(CC(=O)OC)cc2O1 (stereo unspecified)	4.3	-13	13	-14	5	1	4915
CCN(CC)S(=O)(=O)c1ccc2nnn(OCC(=O)Nc3cccc(C#N)c3)c2c1	5.6	6	-10	-14	10	12	7912
CCOC(=O)CSc1nnc(CNC(=O)c2ccc(OC)cc2)n1-c1ccc(OC)cc1	-0.3	.	-1	-6	10	7	8938
C=CCn1c(-c2ccc(OC)cc2)nc2nc3ccccc3nc21	6.8	-1	0	-32	12	20	10588
Cc1cc(F)ccc1S(=O)(=O)N1CCCOC1CNC(=O)C(=O)NCc1ccccn1 (stereo unspecified)	2.2	0	0	-1	1	8	5145
O=C(NCC(c1ccco1)N1CCCCC1)c1ccc(COc2ccccc2)cc1 (stereo unspecified)	-0.2	-4	18	-21	2	-1	4686
COc1ccc(S(=O)(=O)N2CCN(Cc3cc(OC)c(O)c(OC)c3)CC2)cc1	4.1	12	8	-28	-4	5	3402
CCOCCCn1c(=S)[nH]c2cc(C(=O)NCCc3ccccc3)ccc2c1=O	1.8	3	5	-21	1	0	6087
CCNC(=S)N1CCN(c2nc(CC)nc3sc4c(c23)CCCC4)CC1	-6.9	1	27	-15	12	13	3888
O=C(Nc1nnc(-c2cccs2)s1)C1CC1	2.1	3	9	-67	-6	9	4669
CC(C)CCN(C)C1CCN(S(=O)(=O)c2cccc(C(F)(F)F)c2)CC1	-2.5	-3	9	-4	.	.	4660
CCC(C)C1NC(=O)C(CC(C)C)NC(=O)C(Cc2ccccc2)NC(=O)C(Cc2ccccc2)NC(=O)C2CCCN2C(=O)C2CCCN2C(=O)C(C(C)C)NC(=O)C(CC(C)C)NC(=O)C(C(C)CC)NC1=O (stereo unspecified)	13	.	25	.	-4	4	.
O=C(c1ccccc1)N1CCN=C1c1ccccc1	5.1	-2	6	-48	6	6	10845
Cc1cc(Cl)ccc1OCCCC(=O)NN	4.0	1	-3	-9	-3	6	4329
CCOc1cc(NC(=S)Nc2ccccc2)c(OCC)cc1NC(=O)c1ccc(OC)cc1	9.8	-10	-10	-13	1	3	18966*
CCN(CC(=O)Nc1ccccc1C(F)(F)F)C(=O)c1ccccc1SCC(=O)N1CCCC1	5.0	-7	2	0	8	3	?
CC(=O)c1cccc(Nc2c([N+](=O)[O-])c(=O)oc3ccccc23)c1	3.6	-3	5	-2	12	6	3810
O=C1CSC(=Nc2cccc(C(=O)O)c2)N1	1.5	-2	-4	-18	14	1	4506
CCN(CC)S(=O)(=O)c1ccc(C(=O)NN(C)C2=NS(=O)(=O)c3ccccc32)cc1	-3.8	2	-2	7	-5	12	4076
O=C(CCc1ccccc1)N=C1SC2CS(=O)(=O)CC2N1Cc1ccc(F)cc1 (stereo unspecified)	2.1	3	-3	-26	-10	-8	5454

Entries from the list above that have a nitro group on carbon:
SMILES	Sa RN4220 lethal	BJeLR lethal	Sa ugtP lethal	PrP 5UTR inh	Mtb hypoxia rep	Mtb hypoxia rep growth	Autofluor counter
Cc1cc(C)n(-c2ccc(S(N)(=O)=O)cc2[N+](=O)[O-])n1	7.5	0	8	-13	6	4	4288
CC(C)Oc1ccc(CNC(=S)NN=Cc2ccc([N+](=O)[O-])cc2)cc1	1.9	.	17	.	7	4	.
COc1cc([N+](=O)[O-])cc(C=NN(CCC#N)C(C)=O)c1O	2.0	.	-2	.	-10	-2	.
CC(=O)c1cccc(Nc2c([N+](=O)[O-])c(=O)oc3ccccc23)c1	3.6	-3	5	-2	12	6	3810

Additional records follow:
SMILES	Sa RN4220 lethal	BJeLR lethal	Sa ugtP lethal	PrP 5UTR inh	Mtb hypoxia rep	Mtb hypoxia rep growth	Autofluor counter
COc1cc(/C=C2/S/C(=N/S(=O)(=O)c3ccccc3)NC2=O)c([N+](=O)[O-])cc1OC	1.4	1	-6	-15	-1	-1	4365
CC(C)(C)NCC(O)Cn1cc(C=O)c2ccccc21 (stereo unspecified)	1.0	10	-1	-4	-8	4	3368
OCC[C@@H]1C[C@H](O)[C@@H](O)[C@@]2(Cc3ccccc3O2)O1	.	6	.	-19	.	.	3940
NC(=O)c1ccc2c(=O)n3c(-c4cc(Cl)c(N)c(Cl)c4)csc3nc2c1	2.7	2	8	-20	-3	1	3532
COc1ccc(C(O)c2coc3ccc(O)c(CN(C)C)c23)cc1 (stereo unspecified)	-0.8	3	-2	-29	.	.	4809
Cc1ccc(OCCNC(=O)c2cc(-n3cnnc3)ccc2Cl)cc1C	1.1	-13	8	-23	5	-8	9071
C[C@]12C(=O)N(c3ccc(Cl)cc3)C(=O)N1C1c3ccccc3OCC1C2c1ccccc1 (stereo partly specified)	-0.8	.	4	.	0	-1	.
CCOc1ncccc1C(=O)OCC(=O)c1cccs1	3.7	-6	1	.	12	14	10437
CCC(=O)Nc1ccc(C(=O)OCc2ccc(Cl)c(Cl)c2)cc1	2.2	1	-9	-20	-4	7	2471
CCc1nc2ccccc2n(CC)c1=O	6.2	-10	2	-14	12	6	2835
CCc1ccc(NC(=O)Cn2c(=O)oc3cc(S(=O)(=O)N4CCOCC4)ccc32)cc1	2.8	-11	15	17	6	1	5751
N#CC1=C(N)c2ccccc2CC12CCCCC2	5.9	-3	15	-21	14	13	9833
Cc1ccc(S(=O)(=O)N2C[C@@H]3[C@H]4CC[C@H](C4)[C@@H]3[C@@H](C)C2CC(=O)c2ccccc2)cc1 (stereo partly specified)	1.8	.	17	-4	5	-6	3731
COc1ccccc1Cc1nc(-c2cccnc2)no1	1.3	-3	2	-24	6	11	4584
CSc1ccccc1C(=O)C1CCCN(S(=O)(=O)c2c(C)noc2C)C1 (stereo unspecified)	2.0	0	-8	8	-4	10	3957

Screens as filed in PubChem BioAssay.
